H5N1 CPE = antiviral screen in MDCK cells, H5N1 avian flu; 0.07% of 96,000 active; AID 740; cytopathic effect, luminescence, 72 h; hits give high values; no value below 0 was filed and about half of the inactive calls have no number; reference of the scale not given here; inhibition, % at 50 µM; in the data active = inhibition above about 25%
An asterisk follows results filed as active; i = inactive. Only part of the results is shown; the hit share may differ from the screen's.

SMILES	H5N1 CPE
COc1cc(OC)nc(NC(=O)CCl)n1	0.9
COCCNC(=O)c1cnn2c(C(F)(F)F)cc(-c3ccc4c(c3)OCO4)nc12	i
Cc1cc(C(=O)CSc2nnc(-c3ccco3)o2)c(C)n1Cc1ccco1	0.1
CC1=NN(c2ccc(F)cc2)C(=O)C1C(c1cccc(O)c1)c1c(C)[nH]n(-c2ccc(F)cc2)c1=O (stereo unspecified)	i
Cc1ccc(NC(=O)Nc2ccc3oc(C)nc3c2)cc1	i
Cc1occc1C(=O)Nc1nccs1	2.1
O=C(Nc1nnc(-c2ccncc2)s1)C1CCCO1 (stereo unspecified)	1.4
CCc1nc(C)ccc1OCC(=O)NCCCN(C)C	i
Cc1cnn(C(=S)NCc2ccco2)c1	0.2
c1coc(-c2nc3nc4ccccc4nc3n2-c2ccc3c(c2)OCCO3)c1	1.8
C1CCC2(CC1)OCC1(CO2)COC2(CCCCC2)OC1	i
CCOC(=O)CSc1nnc(Cc2cc(=O)[nH]c(=O)[nH]2)n1-c1ccc(Cl)cc1	i
CN(C)C=Nc1ncc2c3ccccc3n(CCN(C)C)c2c1C#N	11.3
Cc1ccc(-n2nnc3c(SCC(=O)NCC4CCCO4)ncnc32)cc1 (stereo unspecified)	4.7
CC1(C)Cc2nc3sc4c(=O)n(CC(N)=O)cnc4c3cc2CO1	0.6
O=C(Nc1ccc2snnc2c1)N1CCOCC1	i
COc1cc(C2C(C#N)=C(N)Oc3c2ccc2ccccc32)ccc1OCC(=O)Nc1ccccc1C (stereo unspecified)	i
CS(=O)(=O)NCc1csc(-c2ccccc2)n1	0.7
CCC(Oc1ccccc1)C(=O)Nc1ccc(-c2nnc(-c3ccco3)o2)cc1 (stereo unspecified)	28.2*
CCOC(=O)COn1c(=O)c(=O)n(OC)c2ccccc21	i
O=C(C1CCC(Cn2c(=S)[nH]c3ccccc3c2=O)CC1)N1CCOCC1 (stereo unspecified)	0.0
O=C(NCc1ccco1)c1ccccc1-c1nc(-c2ccccc2)no1	0.8
CCC(C)c1ccccc1NC(=S)Nc1cccnc1 (stereo unspecified)	0.1
N#Cc1nc(COc2ccc(Cl)cc2)oc1N1CCCCCC1	2.5
Cc1cc(C(=O)N2CCN(C(c3ccccc3)c3ccccc3)CC2)on1	i
C=CCNC(=S)NNC(=O)COc1cccc(Cl)c1	0.7
COC(=O)Cn1ncc2c3ccccc3n(C)c2c1=O	4.3
CCOC(=O)c1sc(NC(C)=O)c(C(=O)OCC)c1C	0.5
CCOC(=O)c1cnn2c(C)cc(-c3ccccc3)nc12	i
O=C1c2ccccc2S(=O)(=O)N1Cc1nc2ccccc2s1	0.2
COc1ccc(CC(=O)OCC(=O)Nc2ncc(Cl)cc2Cl)cc1OC	1.5
Cc1cc(C)c2nc(N3CCC(C(=O)N4CCN(C(=O)c5ccco5)CC4)CC3)sc2c1	i
Cc1ccccc1-n1c(O)c(C=Nc2ccc3c(c2)OCO3)c(=O)[nH]c1=O	0.8
O=C(c1ccco1)N1CCN(S(=O)(=O)c2ccc3[nH]c(=O)oc3c2)CC1	0.5
COc1ccccc1-c1cc(C(=O)N2CCN(c3ccc(F)cc3)CC2)no1	i
COc1ccc(C(=O)c2cnc3ccccc3c2-c2ccccc2)cc1	0.4
CC(=O)c1sc(NC(=O)c2ccc(C)cc2)nc1C	1.1
COc1ccc(CCn2c(C)cc3c(c2=O)C(c2ccncc2)C(C#N)=C(N)O3)cc1OC (stereo unspecified)	0.6
CCc1nc(-c2ccccc2)cc(=O)[nH]1	i
Cc1ccc(C(=O)Nc2ccc(Cc3ccncc3)cc2)cc1[N+](=O)[O-]	3.0
CCOC(=O)CN1C(=O)S/C(=C/c2ccc(N3CCCCC3)o2)C1=O	0.4
CCC(=NCc1ccco1)c1c(O)n(-c2ccccc2)c(=O)[nH]c1=O	i
CCOC(=O)N1CCC(NC(=O)c2cc(S(=O)(=O)N3CCc4ccccc43)cn2C)CC1	i
COc1ccc(/C=c2\sc3nc(-c4ccccc4)c(-c4ccccc4)n3c2=O)cc1OC	1.6
O=C(NC1CCCCC1)C1CCCN(S(=O)(=O)c2cccs2)C1 (stereo unspecified)	0.4
COc1ccccc1Nc1nc(N)nc(CN2CCC(Cc3ccccc3)CC2)n1	i
C=C(C)C1CC=C(C)/C(=N/NC(=O)c2ccc(NC(=O)CC)cc2)C1 (stereo unspecified)	0.1
Cn1c(=O)c2c(nc(CN3CCN(c4ccccc4)CC3)n2Cc2ccccc2Cl)n(C)c1=O	2.0
Cc1ccc(-n2nc3c(c2NC(=O)c2ccc4c(c2)OCO4)CSC3)cc1	0.1
CCOc1ccc(C(=O)Nc2cnn(Cc3ccc(Cl)c(Cl)c3)c2)cc1	i

Additional results:
SMILES	H5N1 CPE
C=CCNC(=O)c1ccc(CNS(=O)(=O)c2ccc(NC(C)=O)cc2)cc1	0.5
O=C(NC12CC3CC(CC(C3)C1)C2)N1CCC(n2nnc3ccccc32)CC1	i
CN1CCN(/C=N/c2c(C#N)cnn2Cc2ccccc2)CC1	1.8
NC(=O)SCC(=O)Nc1ccc(Cl)c(Cl)c1	i
O=C(CSc1ccc(-c2nc3ccccc3[nH]2)cn1)Nc1ccc2c(c1)OCCO2	1.2
CCN(CC)CCn1c(=S)[nH]c2ccc(Cl)cc2c1=O	0.1
CC(C)Cn1c(CN2C(=O)c3ccccc3C2=O)nc2ccccc2c1=O	i
Cc1c(NC(=O)C(C)N2CC(C)OC(C)C2)c(=O)n(-c2ccccc2)n1C (stereo unspecified)	0.4
CC1=CC(=NOC(=O)/C=C/c2ccccc2)C=C(C)C1=O	0.3
CCOC(=O)c1cccc(NC(=O)c2cccnc2)c1	i

Ordered by molar mass (smallest number first): three of the compounds above.
SMILES	H5N1 CPE
NC(=O)SCC(=O)Nc1ccc(Cl)c(Cl)c1	i
Cc1c(NC(=O)C(C)N2CC(C)OC(C)C2)c(=O)n(-c2ccccc2)n1C (stereo unspecified)	0.4
C=CCNC(=O)c1ccc(CNS(=O)(=O)c2ccc(NC(C)=O)cc2)cc1	0.5

Given field by field: entries from further up
> O=C(NC12CC3CC(CC(C3)C1)C2)N1CCC(n2nnc3ccccc32)CC1
  H5N1 CPE: i

> CN1CCN(/C=N/c2c(C#N)cnn2Cc2ccccc2)CC1
  H5N1 CPE: 1.8

> NC(=O)SCC(=O)Nc1ccc(Cl)c(Cl)c1
  H5N1 CPE: i

> O=C(CSc1ccc(-c2nc3ccccc3[nH]2)cn1)Nc1ccc2c(c1)OCCO2
  H5N1 CPE: 1.2

Further compounds
Structure	H5N1 CPE
O=c1[nH]c2ccccc2n2c(-c3ccccc3)nnc12	2.4
O=C(CNC(=O)c1ccccn1)N/N=C/c1ccccc1	i
CCOc1ccc(CCNS(=O)(=O)c2cccc3nsnc23)cc1OCC	0.9
O=C(CCC1=NS(=O)(=O)c2ccccc2N1)NC1CCCCCCC1	i
Cc1cc(NS(=O)(=O)Cc2ccccc2)no1	0.4
O=C(CSc1ncccc1C(=O)O)NCc1ccc(F)cc1	0.2
O=C(c1ccc(=O)n(Cc2ccc(Cl)c(Cl)c2)c1)N1CCOCC1	i
Cc1cc(=O)n2[nH]c(-c3ccccc3)cc2n1	i
CC(C)N1CCC2(CC1)NC(CO)(CO)CO2	i
Cc1ccc(SCCNC(=S)Nc2ccccc2)cc1	i
CCOCC(=O)Nc1ccc(S(=O)(=O)N2CCOCC2)cc1	0.2
CCSC1(SCC)N=C(N)C2(C#N)C(c3ccccc3)NC(C)=CC12C#N (stereo unspecified)	1.5
CCCc1cc(C(=O)Nc2cccc(C(C)=O)c2)no1	i
Cn1c2c(c3ccccc31)CC/C2=N\O	0.2
CCCCn1nnnc1SCC(=O)Nc1cccc(C)n1	i
O=C(Nc1ccc(N2CCOCC2)cc1)C1CCN(S(=O)(=O)Cc2ccccc2)CC1	0.6

Four compounds drawn at random from those above, as already listed:
Structure	H5N1 CPE
CCSC1(SCC)N=C(N)C2(C#N)C(c3ccccc3)NC(C)=CC12C#N (stereo unspecified)	1.5
CCCc1cc(C(=O)Nc2cccc(C(C)=O)c2)no1	i
CC(C)N1CCC2(CC1)NC(CO)(CO)CO2	i
O=C(Nc1ccc(N2CCOCC2)cc1)C1CCN(S(=O)(=O)Cc2ccccc2)CC1	0.6

(cont.)
Structure	H5N1 CPE
O=c1sc2ccccc2n1CCCOc1ccccc1	1.1
Cn1ccnc1C(O)c1ccc(OCc2ccccc2)cc1 (stereo unspecified)	i
COc1ccc(N2C(=O)CCC(C(=O)N3CCCCCC3)C2c2ccc(OC)c(OC)c2)cc1 (stereo unspecified)	i
C/C(=N\NC(=O)CC1N=C(Cc2ccccc2)NNC1=O)c1ccccc1 (stereo unspecified)	0.6
CN(C)CCN=Cc1c(O)n(C2CCCCCC2)c(=O)[nH]c1=O	1.3
CSc1nc2ccccc2n1CC(=O)Nc1cc(C(F)(F)F)ccc1N1CCOCC1	i
CCOC(=O)Cn1c(CCC(=O)O)ccc1-c1ccc(F)cc1	i
Cc1cc(C(=O)c2cnc(/N=C/N(C)C)s2)cc(C)c1O	i
CCOC(=O)CSc1nnc(CNC(=O)c2cccs2)n1-c1cc(OC)ccc1OC	1.8
CCOP(C)(=O)C1(C(=O)OCc2ccccc2)CC1 (stereo unspecified)	i
CN(C)C(CNC(=O)CCCc1c[nH]c2ccccc12)c1ccco1 (stereo unspecified)	i
CC1CCCC(NC(=O)COC(=O)CCC2CCCC2)C1C (stereo unspecified)	i
CN1CCN(c2ccccc2NC(=O)c2ccc(-c3ccc(Cl)cc3Cl)o2)CC1	i
O=C(O)c1ccc(CSCc2ccco2)cc1	0.2
CC(C1CC1)N(C(=O)c1ccccc1O)c1ccccc1 (stereo unspecified)	i
Cc1ccc(CN2CCN(CC(=O)NCc3ccc(Cl)cc3)C2=O)cc1	i
O=C(CCC1CCCC1)Nc1ccc(Br)cn1	0.5
O=C(c1ccco1)N(Cc1ccc([N+](=O)[O-])cc1)c1ccc(Cl)cc1	0.7
Cc1cccc(OCC(=O)Nc2cccc(-c3nnc(-c4ccccc4)o3)c2)c1C	i
CCOc1cc(C=C(C(=O)OC)C(=O)OC)ccc1OCc1ccc([N+](=O)[O-])cc1	i
O=C(OCc1cc2ccccc2[nH]c1=O)C1CCCCC1	0.6
CCOc1ncccc1C(=O)OCc1nnc(-c2ccccc2)o1	2.4
Cc1ccc(SCc2nc3ccccc3n2CC(=O)Nc2ccc(Cl)cc2)cc1	i
O=C(c1ccco1)N1CCN(C(c2ccc(Cl)cc2)c2nnnn2CC2CCCO2)CC1 (stereo unspecified)	0.4
C/[N+]([O-])=C1\Cc2ccccc2C1=O	i
CCOc1ccccc1NC(=S)N1CCC(NC(=O)NC23CC4CC(CC(C4)C2)C3)CC1	i
Cn1cnnc1Sc1nc2c(c(=O)n(C)c(=O)n2C)n1Cc1ccccc1Cl	1.7
O=[N+]([O-])c1ccccc1/C=N/Nc1nccnc1Cl	i
O=C1Nc2ccccc2/C1=C/C(=O)c1cccs1	i
CCCCCn1c(SCC2CCCO2)nc2cc(C(=O)N3CCC(C(N)=O)CC3)ccc2c1=O (stereo unspecified)	i
O=c1cc[nH]c2cc(C(F)(F)F)ccc12	0.6
CCOC(=O)CC(C#N)c1c[nH]c2ccccc12 (stereo unspecified)	i
Cc1noc(C(=O)NCc2cccnc2)c1Cl	i
O=C1CN(C(=O)c2cnccn2)c2ccccc2N1	0.6
c1ccc2c(c1)ncn2CCCCOc1ccc2c(c1)CCC2	i
O=C(Nc1cccc2ccccc12)c1cn(-c2ccccc2)nc1-c1cccs1	i
CC(=O)c1cc(C)ccc1OC(=O)CCN1C(=O)C2C3c4ccccc4C(c4ccccc43)C2C1=O (stereo unspecified)	i
O=C(CSc1nnc(-c2ccccn2)n1Cc1ccccc1)NC1CCCC1	1.2
Cc1nn(CC(=O)NCCN2CCOCC2)c(=O)c2ccccc12	i
O=S(=O)(Nc1nccs1)c1ccc(NS(=O)(=O)c2cccs2)cc1	1.5
CCN(CC)C(=O)CSc1nnc(CCNC(=O)OC(C)(C)C)o1	0.3
Cc1cccc(Nc2nnc(C)c(=O)n2N)c1	0.1
Cn1c(=O)oc2cc(S(=O)(=O)N3CCC(C(=O)N4CCN(c5ccccc5)CC4)CC3)ccc21	i
Cc1ccc(CNC(=O)C2(NC(=O)Nc3ccc(C)cc3)CCCCC2)cc1	i
NC(=O)C1CCN(C(=O)c2ccc(Oc3ccccc3)cc2)CC1	0.5
CCSc1ccccc1C(=O)Nc1cccc(OC)c1	i
COCc1cc(=O)n2[nH]c(C)cc2n1	i
Cc1cc(Cl)ccc1Oc1nc(-c2ccccc2)ncc1S(C)(=O)=O	0.2
Cc1cccc(C)c1N1CCN(S(=O)(=O)c2ccc(F)cc2)CC1	0.3
CCOc1cc(N2CCOCC2)c(OCC)cc1NC(=O)Cc1cn2ccsc2n1	i
N#Cc1c(N)nc2c3c(sc(=N)c2c1N)NC(=O)CC3c1ccccc1Cl (stereo unspecified)	i
c1ccc(C(Cc2nc(-c3cccnc3)no2)c2ccccc2)cc1	i
CCC(=NCCN1CCNCC1)C1=C(O)CC(C)(C)CC1=O	0.8
CCOC(=O)c1ccc2c(c1)C1C=CCC1C(C(=O)O)N2 (stereo unspecified)	2.5
O=S(=O)(Cc1ccccc1)N1CCN(Cc2ccccc2)CC1	i
COc1ccc(-c2nnc(SCCC(=O)O)n2-c2ccccc2)cc1OC	1.6
CCOC(=O)N1CCC(NC(=O)c2cnn3c2NC(c2ccco2)CC3C(F)(F)F)CC1 (stereo unspecified)	1.8
COc1ccc(C2C(C(=O)N3CCN(C)CC3)c3ccccc3C(=O)N2C2CCCCC2)cc1 (stereo unspecified)	i
Nc1nnc(SCc2cccc(C(F)(F)F)c2)s1	i
